From PubChem BioAssay
Ba CapD inh – inhibitors of Bacillus anthracis CapD enzyme; purified CapD enzyme, fluorescence intensity read-out; hits give low values; some hits fall short of the stated cut; z-score (concentration not given with the values); actives 0.23% (n = 140,000);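 active = z-score under -4 in either of two replicates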;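 note: stock transfer was 100 nL into about 40 µL; score is relative to mean and spread of the plate; one replicate is shown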
AID504770 – E. coli YBA685 growth inhibition, screen for V. cholerae RctB inhibitors; actives 0.27% (n = 130,000); AID 504770; z-score (test concentration not listed); E. coli YBA685 rctB-dependent plasmid, OD600 growth, 3 h; hits give low values;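 active = z-score under -2 on both plates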;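 note: wells of about 30 µL received 100 nL stock; score is relative to mean and SD of the test wells; the first replicate is given; strong numbers were not always called active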
Numbers without * were called inactive; . = no result given; & = joins results of further samples. An excerpt; rates above refer to the full screens.

entry	Molecule	Ba CapD inh	AID504770
1	Cc1nn(C(C)(C)C)c2c1C(c1ccsc1)C1=C(CCCC1=O)N2 (configuration not stated)	44	-0.6
2	CC(CN1CCN(Cc2ccccc2)CC1)N(C(=O)C1CCC1)c1ccccn1 (configuration not stated)	-0.28	-0.1
3	CCOC(=O)C1=C(C)N=c2s/c(=C\c3ccc(Br)cc3)c(=O)n2C1c1ccc2c(c1)OCO2 (configuration not stated)	-0.13	.
4	O=C(NCc1ccccc1)c1ccc(NC2=NC3CS(=O)(=O)CC3S2)cc1 (configuration not stated)	0.59	-0.6
5	CC(=O)Nc1ccccc1OC(=O)N(C)C	.	-0.25
6	O=C(CSc1nnc(C2COc3ccccc3O2)n1-c1ccccc1)Nc1ccc2c(c1)OCCO2 (configuration not stated)	.	-0.35
7	CN(C)C(=O)C(Sc1ccc(S(=O)(=O)N2CCCC2)cn1)c1ccccc1 (configuration not stated)	.	0.25
8	CCOC(=O)C1=C(C)NC(C)=C(C(=O)OCC)C1C(=O)OC	.	-0.65
9	CCCCCSc1nnc2c(n1)OC=Nc1ccccc1-2	-0.35	-0.15
10	CCOc1ccc(NC(=O)c2cccc3c2C(=O)N(CC2CCCO2)C3)cc1 (configuration not stated)	-1.1	1.5
11	O=C(CN(Cc1ccc(Br)cc1)S(=O)(=O)c1ccccc1)Nc1ccccc1	0.17	2.6
12	O=C(/C=C/c1cc2cccc3c2n(c1=O)CCC3)NCc1ccc(Cl)cc1	4.6	.
13	CC(=O)Nc1ccc(OCCCNC(=O)C2=NNC(=O)CC2)cc1	0.17	0.9
14	CCOC(=O)C(Cc1ccccc1)C(=O)Nc1cc(N(C)C)ccc1C (configuration not stated)	0.45	-0.35
15	CC1=C(C(=O)Nc2ccccc2)C(c2ccc(C)o2)NC(=S)N1 (configuration not stated)	.	-0.05
16	CC1(C)C=Cc2cc(C#N)ccc2O1	-0.26	.
17	CCC(C)NC(=O)C(C)Sc1ccccc1 (configuration not stated)	0.45	-1.1
18	O=C1CCn2cccc21	.	-0.55
19	O=C(CSc1nc2ccccc2c(=O)n1CCC(=O)N1CCN(c2ccccc2)CC1)NCc1ccccc1	-0.8	.
20	CCc1cc(=O)oc2cc(C)c3c(C(C)(C)C)coc3c12	0.58	-0.25
21	CCc1ccc(NC(=O)CCCN2C(=S)NC(C)(C)CC2C)cc1 (configuration not stated)	0.55	.
22	CCOC(=O)c1c(N)sc(N)c1C(=O)OCC	-1.3	-0.7
23	NC(=O)CSc1nc(SCC(N)=O)c2c3c([nH]c2n1)CCCC3	2.2	1.8
24	Cc1ccc(NC(=S)NC2CN3CCC2CC3)cc1 (configuration not stated)	.	0.35
25	Cc1ccc(C)c2c1NC(c1ccc(Br)cc1)C1CC=CC21 (configuration not stated)	-0.24	.

Taken from above:
Under AID504770, CC(=O)Nc1ccc(OCCCNC(=O)C2=NNC(=O)CC2)cc1 shows 0.9
Under AID504770, CC1=C(C(=O)Nc2ccccc2)C(c2ccc(C)o2)NC(=S)N1 (configuration not stated) shows -0.05
Under AID504770, CC(=O)Nc1ccccc1OC(=O)N(C)C shows -0.25
Under AID504770, Cc1ccc(NC(=S)NC2CN3CCC2CC3)cc1 (configuration not stated) shows 0.35
Under Ba CapD inh, Cc1nn(C(C)(C)C)c2c1C(c1ccsc1)C1=C(CCCC1=O)N2 (configuration not stated) shows 44
Under Ba CapD inh, CC1(C)C=Cc2cc(C#N)ccc2O1 shows -0.26
Under Ba CapD inh, CCOC(=O)C(Cc1ccccc1)C(=O)Nc1cc(N(C)C)ccc1C (configuration not stated) shows 0.45

Next part.
entry	Molecule	Ba CapD inh	AID504770
26	OC(CN1CCOCC1)(c1ccc(Cl)cc1)c1ccc(Cl)cc1	-0.72	.
27	O=C(NCC(c1cccs1)N1CCOCC1)c1cc(F)cc(F)c1 (configuration not stated)	.	1.9
28	COc1ccc(C(=O)Nc2cc(-c3nc4cc(C(C)C)ccc4o3)ccc2Cl)cc1[N+](=O)[O-]	-0.15	.
29	COc1cccc2c1c(NC(=O)CSCC(=O)O)nn2C	0.94	0.05
30	COc1ccc(CCN(C)C(=O)COc2ccc(NC(C)=O)cc2)cc1OC	.	1.6
31	Oc1c(Cl)cc(Cl)c(Cl)c1Cc1c(O)c(Cl)cc(Cl)c1Cl	-0.23	-3.2*
32	COCSc1nnc(-c2ccncc2)n1-c1ccc(C)c(C)c1	.	0.05
33	O=c1/c(=C/c2ccc(Br)cc2)sc2nnc(-c3ccccc3Cl)n12	-0.21	.
34	O=C1CC2C(=O)NCCN2C(=NC(=O)c2ccc(Cl)cc2)N1 (configuration not stated)	.	0.45
35	CCN(CC)C(=O)c1sc(NC(=O)c2c(-c3ccccc3)noc2C)c(C(=O)OC(C)C)c1C	11	.
36	Cc1ccc(-c2ccc(CCC(=O)O)[nH]2)cc1	31	-1.1
37	O=C(CCC(=O)Nc1ccc(F)cc1)Nc1ccc(F)cc1	0.06	1.4
38	COc1ccc2cc(CCNC(=O)C3CCCC3)c(=O)[nH]c2c1	22	-0.95
39	CCCN1CCN(C(=O)c2ccc(S(=O)(=O)N3CCCc4ccccc43)cc2)CC1	.	-1.9
40	COC(=O)c1cn(CCOc2ccccc2)c2ccccc12	-1.5	-1.2
41	CCOc1ccccc1C1CC(=O)NC(SCC(=O)Nc2ccc(Oc3ccccc3)cc2)=C1C#N (configuration not stated)	-0.71	.
42	O=C(NCCCN1CCOCC1)c1ccc2c(c1)[nH]c(=S)n1c3ccccc3nc21	45	.
43	CCS(=O)(=O)C(=C(Nc1ccc(OC)cc1)Nc1ccc(OC)cc1)S(=O)(=O)CC	0.23	-0.35
44	Nc1ncc(-c2ccncn2)c(-c2ccc(C(F)(F)F)cc2)n1	-0.67	.
45	Cc1cc(C)c(C(=O)COC(=O)c2c(C)noc2C)cc1C	.	1.1
46	O=C1Nc2ccccc2C1(O)C/C(=N/O)c1ccco1 (configuration not stated)	-0.2	0.3
47	CCn1ccc2c(OCC(=O)NC3CCCC3)cccc2c1=O	.	2
48	COc1ccc(N2C(=O)C=C(c3ccc(F)cc3)C2/C=N/O)cc1 (configuration not stated)	-0.63	0.45
49	C(=Nc1ccc(-c2cnco2)cc1)c1cccnc1	2.9	-0.8
50	Cc1nn(C)c(Oc2ccccc2)c1CCNC(=O)Nc1ccccc1	0.11	.
51	CSc1ncc(C(=O)O)c(C(F)(F)F)n1	-0.37	-0.1
52	O/N=C/C=C/c1cn(Cc2ccccc2)nn1	.	-0.45
53	CC(CN1CCCC1)OC(=O)c1ccc(Br)cc1 (configuration not stated)	0.35	0.65
54	N=c1c[n+](CCc2ccccc2)[n-]o1	-0.25	-0.35
55	CC(=O)N(CCCC(O)c1ccc(F)cc1)C(C)C (configuration not stated)	-0.26	.
56	CCN(CC)C(=O)c1sc(NC(=O)C(C)C)c(C#N)c1C	.	-0.15
57	COc1ccc(-c2ccc(OC)cc2C(=O)NN)cc1	0.085	-0.45
58	Cc1ccc(CCNC(=O)CSCc2ccc(F)cc2)cc1	.	-0.15
59	Cc1ccc(C(=O)c2ccccc2C(=O)O)cc1C	0.49	.
60	CCO/C=C(\C#N)S(=O)(=O)c1ccc2ccccc2c1	0.3	.
61	Cc1ccc(NC(=O)CNc2ccccc2)cc1Cl	0.31	-0.3
62	S=c1nc2c(n[nH]1)c1ccccc1n2Cc1ccccc1	-0.23	2.5
63	Cc1csc(N)c1-c1nc2ccccc2s1	2.9	.
64	CCCN(CC1CC1)C(=O)CSc1nc2ccccc2n1C	.	-0.3
65	N#CCCn1cc(C(CC(=O)c2ccc3c(c2)CCCC3)C(=O)O)c2ccccc21 (configuration not stated)	.	0.3
66	CCOC(=O)C1=CS/C(=C2/C(=S)C(C)(C)N(C(=O)CC(C)C)c3ccc(OCC)cc32)S1	2.1	-0.25
67	O=C1CSCC(=O)N1c1ccc(Cl)cc1C(F)(F)F	0	2.4
68	COCCNC(=O)Cn1nnc(-c2ccc(OC)cc2)n1	.	-0.25
69	CC[C@H](C)C(=O)O[C@H]1C[C@@H](C)C=C2C=C[C@H](C)[C@H](CC[C@@H]3C[C@@H](O)CC(=O)O3)[C@H]21	-0.065&0.015	0.75
70	CCOC(=O)c1ccc(N2CCOCC2)c(NC(=O)c2c(-c3c(Cl)cccc3Cl)noc2C)c1	2.9	.
71	Cc1c(CCNC(=O)c2cc(S(=O)(=O)N(C)C)c(Cl)cc2Cl)c2ccccc2n1C	0.22	0.25
72	CC(C)N(Cc1ccccc1)C(=O)c1ccc2nsnc2c1	-0.4	-0.25
73	CCC(=O)N1c2cc(C(c3ccccc3)(c3ccccc3)c3ccccc3)ccc2C(C)(c2ccc(C)cc2)CC1(C)C (configuration not stated)	0.78	.
74	Cc1cc(C=Nc2ccc(Cl)cc2O)c(C)n1C	0.24	-0.75
75	Cc1cc(=O)[nH]c(N/N=C/C2=C(N3CCOCC3)C(=C\c3ccc(Cl)cc3)/CC2)n1	.	1.5

Down the list, as entered above.
Ba CapD inh for nos. 17 to 21: 0.45, ., -0.8, 0.58, 0.55

Continued.
entry	Molecule	Ba CapD inh	AID504770
76	COc1ccc(-c2nnc3sc(NC(C)=O)nn23)cc1OC	-0.47	-0.55
77	O=C(Nc1ccc(S(=O)(=O)N2CCCCC2)cc1)C1CC1	0.43	0.5
78	CC1=C(C#N)C(c2cccnc2)C2=C(CC(C)(C)CC2=O)N1 (configuration not stated)	49	0.15
79	NC(=O)c1sc2nccc(Nc3ccccc3)c2c1N	32	-0.2
80	O=S1(=O)c2ccccc2Nc2ccccc21	.	0.45
81	O=C(O)C1OCCc2ccccc21 (configuration not stated)	.	-0.75
82	CNc1nc(SC)nc(N(C)C#N)n1	.	1.4
83	CC(=O)c1oc2c(C)c3oc(=O)cc(C)c3cc2c1C	-0.17	.
84	O=C(c1cn(CC(=O)N2CCOCC2)c2ccccc12)C1CC1	.	-0.75
85	O=S(=O)(NC1c2cccc3cccc(c23)C1NCc1ccco1)c1ccc(Cl)cc1 (configuration not stated)	-0.78	.
86	N#CC1=C(N)/C(=C\c2ccc(Cl)c(Cl)c2)SC1=N	-1.7	0.7
87	Cc1ccc(S(=O)(=O)n2c(=O)sc3ccccc32)cc1	54	0.15
88	O=C(O)c1c(CNCCc2ccco2)c2ccccc2n1Cc1ccccc1	-0.055	-0.6
89	O=C(Cc1ccccc1)Nc1nnc(-c2ccc(Br)cc2)s1	-0.14	1.9
90	O=C(NNC(=O)c1csc(CS(=O)(=O)Cc2ccco2)n1)OCc1ccccc1OC(F)(F)F	0.18	.
91	CN(C(=O)COC(=O)c1cc(S(=O)(=O)N2CCOCC2)ccc1O)c1ccccc1	.	1.8
92	COc1ccc(C2CC(=O)NC(SCC(=O)N3CCc4ccccc4C3)=C2C#N)cc1 (configuration not stated)	.	0.35
93	CCOC(=O)C1=NNC2C(=O)N(c3ccsc3C(=O)OC)C(=O)C12 (configuration not stated)	0.07	.
94	COc1cc2c(cc1OC)-c1c(C#N)c(-c3ccc4c(c3)OCO4)c(C(=O)c3ccccc3)n1CC2	1.2	-0.6
95	COC(=O)CC1SC(=O)NC1=Nc1ccc(C)cc1 (configuration not stated)	0.38	0.55
96	Cc1cc(Oc2cc(Cl)cc(Cl)c2)nc(-c2ccccn2)n1	0.09	1
97	O=C(OCc1ccccc1F)N1CCN(c2cc(C(F)(F)F)ccn2)CC1	80	.
98	COc1cc2c(cc1OC)-c1c(OC)c(OC)c(N)c3c1[C@H](C2)N(C)CC3	5.3	1.1
99	COC(=O)c1ccc(COC(=O)c2ccc(OCc3c(C)noc3C)cc2)cc1	.	-0.4
100	CS(=O)(=O)NC(c1ccccc1)c1ccccc1	-0.14	-0.5

4 records picked at random from those above, as already listed:
entry	Molecule	Ba CapD inh	AID504770
33	O=c1/c(=C/c2ccc(Br)cc2)sc2nnc(-c3ccccc3Cl)n12	-0.21	.
62	S=c1nc2c(n[nH]1)c1ccccc1n2Cc1ccccc1	-0.23	2.5
88	O=C(O)c1c(CNCCc2ccco2)c2ccccc2n1Cc1ccccc1	-0.055	-0.6
91	CN(C(=O)COC(=O)c1cc(S(=O)(=O)N2CCOCC2)ccc1O)c1ccccc1	.	1.8

Following part.
entry	Molecule	Ba CapD inh	AID504770
101	CCOC(=O)c1sc(SC)c2c1CCCC21SCCS1	-0.92	-0.5
102	CCCN(CC(=O)Nc1cc(C)on1)S(=O)(=O)c1cccc(C(F)(F)F)c1	.	-0.8
103	Cc1cc(C(=O)CO/N=C/c2ccco2)c(C)n1-c1ccc(OC(F)F)cc1	.	-0.7
104	Cc1ccc(S(=O)(=O)Nc2c(C)nn(C)c2C)cc1	.	-0.15
105	CC(=O)Nc1cccc(OC(=O)c2ccoc2C)c1	0.54	-0.4
106	COc1cc(/C=C/C(=O)OCC(=O)N2C(C)CCCC2C)ccc1O (configuration not stated)	.	0.9
107	CC(C)(C)n1nc2c(c1NC(=O)Cc1ccccc1)CS(=O)(=O)C2	0.69	-0.5
108	Cc1ccc(C(=O)Sc2nc(C)cc(C)n2)cc1	.	1.8
109	Cc1cc(C)c(C(=O)O)c(=O)[nH]1	0.88	0.6&-0.8
110	CC1(C)SC(c2ccccc2)NC1C(=O)O (configuration not stated)	-0.12	2
111	Cc1cccc(C2Nc3cccc4cccc(c34)N2)c1	30	.
112	CC(C)c1nc2ccc(Cl)cc2c2c1C(=O)N(NC(=O)c1ccncc1)C2=O	-0.99	.
113	Cc1cccn2c(=O)c(/C=C3\SC(=S)N(Cc4ccccc4)C3=O)c(NCCN3CCOCC3)nc12	0.06	.
114	NC(=O)c1c(NC(=O)CN2C(=O)/C(=C\c3c(Cl)cccc3Cl)SC2=S)sc2c1CCCC2	-0.35	.

Two of the compounds above, field by field:
101) CCOC(=O)c1sc(SC)c2c1CCCC21SCCS1
- Ba CapD inh: -0.92
- AID504770: -0.5

102) CCCN(CC(=O)Nc1cc(C)on1)S(=O)(=O)c1cccc(C(F)(F)F)c1
- Ba CapD inh: .
- AID504770: -0.8
